Bead autofluor: flagged as autofluorescent in microsphere protease counterscreen; compound autofluorescence counterscreen, microsphere flow cytometry; active compounds read high; fluorescence intensity (no concentration beside the values); 3.1% of 360,000 active;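 active = at least 3 SD above the mean of all compounds, about 16000 in these data; inconclusive = too few beads counted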;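 also: 100 nL of 1 mM stock went into each well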
RN4220 kill: S. aureus RN4220 growth inhibition; inhibition, % (test concentration not listed); 0.33% of 330,000 active; AID 1259311; OD600, 16 h;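 active = z-score of -3 or lower and OD600 up to 0.18 on both plates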;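 also: plate controls were untreated cells for no effect and reference antibiotic for full effect; stock transfer was 100 nL into about 80 µL; one replicate is shown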
BJeLR viability: BJeLR cell viability loss | BJeLR (HRASV12) viability, CellTiter-Glo ATP luminescence, 48 h; reference of the scale not given here | inhibition, % (no concentration beside the values) | 0.17% of 300,000 active | AID 1554;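 active = replicate mean above 50%; inconclusive = above 50% but judged a plate artefact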;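 also: 50 nL library stock added to about 25 µL; numbers are from one replicate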
ugtP null kill: kills S. aureus RN4220 lacking UgtP; S. aureus RN4220 ugtP deletion, OD600 growth, 16 h; some inactives read as strong as hits; growth inhibition, % (test concentration not listed); 0.54% of 330,000 active; AID 1259309;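 active = z-score under -3 and OD600 up to 0.15 on both plates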;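 also: plate controls were untreated wells for no effect and antibiotic for full effect; wells of about 80 µL received 100 nL stock; the first replicate is given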
Mtb hypoxia inh: Mtb hypoxia fluorescent reporter inhibition. fluorescence inhibition, % (concentration not given with the values). M. tuberculosis hypoxia-regulated fluorescent reporter, fluorescence. 0.1% of 300,000 active. AID 1159583;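 active = 35 to 45% if threefold the growth effect, above 45% if 1.5-fold the growth effect; inactive = the rest, general growth blockers included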;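 also: wells of about 50 µL received 100 nL stock; 0% = vehicle wells and 100% = reference inhibitor wells; whole bacteria with a GFP reporter of the hypoxia response; strong numbers were not always called active; many hits fall short of the cut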
PrP 5UTR inh: suppresses PrP 5' UTR mRNA reporter expression; cell-based PrP 5' UTR mRNA reporter, plate reader; inhibition, % (test concentration not listed); 0.35% of 340,000 active;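 active = every replicate at 50% or more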;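 also: 0 = median of the neutral control wells; tested in H4 reporter cells; numbers are from one replicate; inactives centre near -14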
Mtb hypoxia inh growth: second read-out of Mtb hypoxia inh, no call of its own (marks repeat the call); growth inhibition, %; measured here: M. tuberculosis growth (absorbance);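 0% = vehicle and 100% = reference antibiotic; read after six days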
* = called active by the depositor; ? = inconclusive; nt = no result given. Compounds were not picked by outcome. About 4.1% of those tested had a hit in this group.

cpd	SMILES	BJeLR viability	PrP 5UTR inh	Bead autofluor	RN4220 kill
1	O=C1OC(NC(=O)c2ccccc2)C(n2cc(CO)nn2)=C1Cl (stereo not given)	7	-30	3850	5.2
2	O=C(NCc1cccs1)c1ccc([N+](=O)[O-])cc1	-11	0	2548	9.0
3	O=C(N1CCCCCC1)N1CCN(C(=O)N2CCOCC2)CC1	-1	-14	3721	-2.3
4	COc1ccc(N2C(=O)CC(S/C(N)=N/N=C(\C)c3cccs3)C2=O)cc1 (stereo not given)	10	-12	3132	nt
5	C=C1CCN(C(CC(C)C)C(=O)Nc2ccc(OC)cc2)S(=O)(=O)c2ccccc21 (stereo not given)	nt	nt	nt	1.1
6	O=C(CCNC(=O)C1CCN(S(=O)(=O)c2ccc(F)cc2)CC1)NCCc1cccc(F)c1	3	-9	5996	4.1
7	C=CCn1c(SCc2nc3ccccc3c(=O)[nH]2)nc2sc3c(c2c1=O)CCCC3	12	nt	nt	2.9
8	CC[C@H](C)[C@H](NC(=O)OCc1ccccc1)C(=O)OCC(=O)N(C)CC(=O)Nc1ccccc1Cl	2	-23	4271	-4.8

cpd	Mtb hypoxia inh growth	ugtP null kill	Mtb hypoxia inh
1	8	-7	13
2	nt	6	nt
3	nt	1	nt
4	nt	nt	nt
5	9	4	14
6	2	2	0
7	-6	6	1
8	-11	-1	-7

The results go on.
cpd	SMILES	BJeLR viability	PrP 5UTR inh	Bead autofluor	RN4220 kill
9	CC1CC(C)CN(c2ccc([N+](=O)[O-])nc2)C1 (stereo not given)	-3	-22	4488	8.5
10	Cc1ccc(Cn2c(SCC(C)C)nc3c2c(=O)n(C)c(=O)n3C)cc1	5	-12	5729	-1.8
11	COC(=O)c1ccc(COc2cc(C)ccc2C)o1	-6	-86	3041	5.2
12	Cc1ccc(Cl)cc1N1CCN(C(=O)CN(C2CCCCC2)S(C)(=O)=O)CC1	4	-19	4530	2.1
13	COc1ccccc1Cn1c(C(C)C)nc2ccccc21	-2	-1	4245	-0.8
14	CN1C(=O)N(C)C(=O)C2(Sc3ccccc3C2=O)C1=O	nt	-17	8866	1.5
15	CCN(C(=O)CSc1nc2cc(Cl)ccc2c(=O)n1CC(C)C)C1CCS(=O)(=O)C1 (stereo not given)	6	-10	?	2.5
16	CCCCC1=CC2=CC(=O)C(C)(OC(=O)C3CCCC3)C(=O)C2=CO1 (stereo not given)	-6	4	3096	nt

cpd	Mtb hypoxia inh growth	ugtP null kill	Mtb hypoxia inh
9	13	16	7
10	9	8	-5
11	-7	11	-1
12	nt	0	nt
13	5	7	11
14	-3	1	7
15	-1	2	-2
16	nt	nt	nt

Additional compounds:
cpd	SMILES	BJeLR viability	PrP 5UTR inh	Bead autofluor	RN4220 kill
17	CS(=O)(=O)N1CCN(c2ccc(NC(=O)CSc3ccc(Cl)cc3)cc2)CC1	-8	-38	5676	9.5
18	COC(=O)c1ccccc1NC(=O)C=NO	nt	nt	nt	5.5
19	COc1cc(OC)c(OC)cc1C=NNC(=O)CSc1ccccc1F	nt	nt	nt	3.6
20	CCOc1ccc(NC(=O)CN(c2ccc(OCC)cc2)S(=O)(=O)c2c(C)[nH]c(=O)[nH]c2=O)cc1	-4	-21	4466	-2.6
21	CCCN(CCC)CCCNC(=O)c1cc2c(-c3ccc(OC)c(OC)c3)nn(C)c2s1	5	-3	3788	1.3
22	C/C=C/C(=O)N1CC2(CC(c3cccc(NC(=O)CC)c3)=NO2)C[C@H]1C(N)=O (stereo not given in full)	2	5	2968	nt
23	NC(=O)c1cc(C(N)=O)nc(Cl)n1	7	-34	3764	1.8
24	CC1CCCCC1NC(=O)C1CCN(C(=O)c2sccc2-n2cccc2)CC1 (stereo not given)	-2	-18	5139	-13

cpd	Mtb hypoxia inh growth	ugtP null kill	Mtb hypoxia inh
17	4	-3	14
18	6	0	5
19	0	4	8
20	3	8	-7
21	0	-1	1
22	nt	nt	nt
23	-2	9	9
24	11	1	8

(continued)
cpd	SMILES	BJeLR viability	PrP 5UTR inh	Bead autofluor	RN4220 kill
25	Cc1ccc(-c2csc(/C=C3\SC(C)C(=O)N3CC(=O)Nc3ccccc3F)n2)cc1 (stereo not given)	1	-9	4071	-0.8
26	O=C(Cn1ccc(C(F)(F)F)n1)N/N=C/c1ccc2c(c1)OCO2	-3	-22	1993	nt
27	Cc1ccc(NC(=O)Cn2c(=O)c3cccn3c3ccccc32)cc1	-4	0	6900	3.6
28	O=C(Nc1nccs1)c1ccc(Br)o1	4	-28	10704	7.5
29	CCCn1c(SCC(=O)NCCc2ccccc2)nnc1-c1cccnc1	4	3	2866	-0.3
30	CCOCCCNS(=O)(=O)c1ccc2c(c1)oc(=O)n2CC(=O)OCC	-3	-11	23318*	-1.8
31	C=CCn1cnc2scc(-c3ccccc3)c2c1=O	1	-1	3254	4.2
32	COc1cc(C(=O)Oc2ccccc2/C=N/NC(=O)c2ccc(Cl)cc2)cc(OC)c1OC	18	-27	2435	nt

cpd	Mtb hypoxia inh growth	ugtP null kill	Mtb hypoxia inh
25	1	13	-6
26	nt	nt	nt
27	-1	5	-1
28	9	-6	12
29	-2	3	-5
30	5	-1	-6
31	7	7	14
32	nt	nt	nt

Next section
cpd	SMILES	BJeLR viability	PrP 5UTR inh	Bead autofluor	RN4220 kill
33	CC1(C)CC(=O)CC(C)(C)N1OC(=O)c1ccccn1	-2	-46	3262	-7.6
34	CC(NC(=O)c1ccco1)c1nc(-c2ccccc2)no1 (stereo not given)	5	-17	3502	2.0
35	O=C(Nc1ccccc1Cl)c1ccccc1S(=O)(=O)c1ccccc1[N+](=O)[O-]	0	7	2065	6.8
36	Cc1cc(C)c(C#N)c(SCc2nnc(-c3ccccc3[N+](=O)[O-])o2)n1	0	-38	4736	6.7
37	C=CCSc1nncn1N=Cc1ccc(OC)cc1	nt	nt	nt	-0.2
38	NC(=O)c1oc2ccccc2c1NC(=O)c1ccco1	nt	14	5959	8.1
39	CCN1CCN(C(=O)c2ccc(OCC(=O)Nc3ccc(F)cc3)c(OC)c2)CC1	-4	-18	3418	3.8
40	COCCCNC(=O)c1c(N)n(/N=C/c2cccnc2)c2nc3ccccc3nc12	-19	-9	4710	nt

cpd	Mtb hypoxia inh growth	ugtP null kill	Mtb hypoxia inh
33	6	-9	3
34	0	4	0
35	9	1	15
36	-4	-2	-6
37	5	-6	-14
38	5	12	6
39	0	4	5
40	nt	nt	nt

More entries follow.
cpd	SMILES	BJeLR viability	PrP 5UTR inh	Bead autofluor	RN4220 kill
41	O=C(OC(C(=O)NCc1ccc2c(c1)OCO2)c1ccncc1)c1ccc(Cl)nc1 (stereo not given)	1	-12	3264	-1.1
42	CCOc1cc(/C=C2/C(=N)N3OC(C)=CC3=NC2=O)ccc1OCCOc1ccccc1	-3	-11	7026	7.7
43	CCCCNC(=O)CSc1nnc(Cc2ccc(Cl)c(Cl)c2)c(=O)[nH]1	-12	-39	3467	nt
44	Cc1ccc(Cn2c(SCC(=O)NN=Cc3ccc(C)o3)nc3ccccc32)cc1	nt	nt	nt	4.7
45	Cc1cc(C(=O)COC(=O)Cc2ccc(Br)cc2)c(C)n1C	nt	-18	10406	1.9
46	COc1ccc(/C=N/OCC(=O)Nc2ccc3c(c2)OCO3)c(OC)c1	5	-20	3286	nt
47	CC(Oc1ccc(F)cc1)C(=O)Nc1cc(S(=O)(=O)N2CCCCC2)ccc1N1CCOCC1 (stereo not given)	0	8	?	4.5
48	CCN(CC1COc2ccccc2O1)C(=O)CN1C(=O)NC(C)(c2ccccc2)C1=O (stereo not given)	nt	-21	4162	3.7

cpd	Mtb hypoxia inh growth	ugtP null kill	Mtb hypoxia inh
41	2	-6	-11
42	6	-4	4
43	nt	nt	nt
44	-3	-11	-8
45	2	2	6
46	nt	nt	nt
47	1	9	0
48	9	1	7

(listing goes on)
cpd	SMILES	BJeLR viability	PrP 5UTR inh	Bead autofluor	RN4220 kill
49	CC1CCC/C(=C\Nc2ccc(O)cc2)C1=O (stereo not given)	-9	-22	9780	3.1
50	C=CCc1c(C)nc2c(OC)cccc2c1Cl	nt	24	4282	-1.7
51	COCCNC(=O)C(c1ccccc1)N(CCOC)C(=O)Cn1nnc2ccccc21 (stereo not given)	nt	-6	4415	2.3
52	CCC1(C)NC(=O)N(CC(=O)c2cc(C)n(C3CC3)c2C)C1=O (stereo not given)	nt	-33	?	1.5
53	CCOC(=O)C1=C(c2ccccc2)N(C)C(=O)NC1c1ccc(OC(F)F)c(OC)c1 (stereo not given)	3	-11	4746	4.4
54	CCc1ccc2nc(N(CCCN(C)C)C(=O)c3ccc(S(=O)(=O)N4CCCc5ccccc54)cc3)sc2c1	1	-3	4532	nt
55	Cc1ccc(S(=O)(=O)N2CCN(C(=O)CC3CCCC3)CC2)cc1	6	-33	12578	5.6
56	COCCn1c(SCc2ccc(OC)c(F)c2)nc2ccccc2c1=O	1	-13	4316	-2.6

cpd	Mtb hypoxia inh growth	ugtP null kill	Mtb hypoxia inh
49	-2	-4	-8
50	10	3	2
51	nt	9	nt
52	0	-1	5
53	nt	6	nt
54	nt	nt	nt
55	6	8	6
56	-3	8	-7

(next part)
cpd	SMILES	BJeLR viability	PrP 5UTR inh	Bead autofluor	RN4220 kill
57	COc1ccc(S(=O)(=O)N2CCc3ccccc32)cc1C(=O)O	-8	-14	3689	4.4
58	COc1cc(C)nc(N(C)C(C)=O)n1	-1	-5	2556	2.2
59	Cc1ccc(Cc2cnc(NC(=O)c3cccs3)s2)cc1	10	-111	4040	-4.0
60	O=C1NC(=Nc2cccc([N+](=O)[O-])c2)SC1(CO)CO	-21	-24	4281	-4.3
61	Cc1ccc(C(=O)NC2CCN(CC(=O)NC3CCC(C)CC3)CC2)cc1 (stereo not given)	1	-28	5847	-0.2
62	COc1cccc(-c2nc(CS(=O)(=O)CC(=O)NCCC(C)C)c(C)o2)c1	3	-45	6128	6.1
63	CCOC(=O)C(CCCCOc1cccc(CC)c1)C(=O)OCC	0	-18	6841	nt
64	Cc1cc(C(=O)c2ccccc2)c(NC(=O)CCl)s1	4	-10	2448	4.2

cpd	Mtb hypoxia inh growth	ugtP null kill	Mtb hypoxia inh
57	-5	6	-7
58	13	4	-4
59	12	-16	16
60	2	2	-3
61	7	4	7
62	-2	3	2
63	nt	nt	nt
64	12	0	-1

Exported with tabs: entries from further up.
entry	Molecule	BJeLR viability	PrP 5UTR inh	Bead autofluor	RN4220 kill	Mtb hypoxia inh growth	ugtP null kill	Mtb hypoxia inh
54	CCc1ccc2nc(N(CCCN(C)C)C(=O)c3ccc(S(=O)(=O)N4CCCc5ccccc54)cc3)sc2c1	1	-3	4532	nt	nt	nt	nt
55	Cc1ccc(S(=O)(=O)N2CCN(C(=O)CC3CCCC3)CC2)cc1	6	-33	12578	5.6	6	8	6
56	COCCn1c(SCc2ccc(OC)c(F)c2)nc2ccccc2c1=O	1	-13	4316	-2.6	-3	8	-7
57	COc1ccc(S(=O)(=O)N2CCc3ccccc32)cc1C(=O)O	-8	-14	3689	4.4	-5	6	-7
58	COc1cc(C)nc(N(C)C(C)=O)n1	-1	-5	2556	2.2	13	4	-4
59	Cc1ccc(Cc2cnc(NC(=O)c3cccs3)s2)cc1	10	-111	4040	-4.0	12	-16	16
60	O=C1NC(=Nc2cccc([N+](=O)[O-])c2)SC1(CO)CO	-21	-24	4281	-4.3	2	2	-3
61	Cc1ccc(C(=O)NC2CCN(CC(=O)NC3CCC(C)CC3)CC2)cc1 (stereo not given)	1	-28	5847	-0.2	7	4	7
62	COc1cccc(-c2nc(CS(=O)(=O)CC(=O)NCCC(C)C)c(C)o2)c1	3	-45	6128	6.1	-2	3	2
63	CCOC(=O)C(CCCCOc1cccc(CC)c1)C(=O)OCC	0	-18	6841	nt	nt	nt	nt
64	Cc1cc(C(=O)c2ccccc2)c(NC(=O)CCl)s1	4	-10	2448	4.2	12	0	-1

New compounds follow:
cpd	SMILES	BJeLR viability	PrP 5UTR inh	Bead autofluor	RN4220 kill
65	O=C(CO/N=C/c1c(Cl)cccc1Cl)NNC(=O)c1cccc(Cl)c1	0	-22	6283	nt
66	COc1cccc(C2(O)CCN(C(=O)C3CC3)CC2)c1	-2	-7	3288	0.9
67	CCOC(=O)NC(=O)C(C#N)=NNc1cccc(Cl)c1	nt	nt	nt	2.2
68	CN(C(=O)c1ccc2c(Cl)c3c(nc2c1)CCC3)c1ccccc1	-11	-32	6679	-5.3
69	Cc1cc(NC(=O)c2ccccc2)ccc1NC(=O)c1ccccc1Cl	-14	3	4233	2.8

cpd	Mtb hypoxia inh growth	ugtP null kill	Mtb hypoxia inh
65	nt	nt	nt
66	nt	1	nt
67	-4	-1	17
68	7	12	9
69	10	-1	0
